# Calb biofilm kill = mixture kills Candida albicans biofilm cells; C. albicans biofilm persisters + clotrimazole, fluorescence viability; primary screen in compound mixtures of four per well; inhibition, % at 7.6 µM; 0.02% of 120,000 active; AID 1242;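 active = inhibition above 30.3% in the primary screen of four-compound pools, then above 30% when the compound was retested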;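 note: compounds exposed to preformed 24 h biofilms for 48 h; the number belongs to the whole pool; some results filed as inactive read as strong as hits; inactives centre near 12; 0% = biofilm with clotrimazole alone and 100% = kill control; retested singly at about 60 µM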
#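 Test system: C. albicans biofilms. Buffer or medium: RPMI/MOPS medium, pH 7.0. Timing: 48 h compound exposure at 37 °C. Technique: Alamar Blue fluorescence. Evaluation: percent inhibition of biofilm viability.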
# * hit, by the source's call. These rows are one share of the data. The share of hits here may be higher or lower than overall.
SMILES,Calb biofilm kill
CC(C)CNC(=O)c1ccccc1NC(=O)c1ccc(CSc2ccccc2)cc1,7.5
Cc1nonc1NC(=O)CSc1nc(CCC2CCCC2)nc2ccccc12,15.6
CC1CCCC/C1=N\NC(=S)NCCc1ccccc1 (centres undefined),7.1
CC1CCCCN1CC(=O)Nc1ccccc1Sc1ccccc1 (centres undefined),8.6
COc1ccc(C(=O)CSc2ccc(-c3ccccc3)nn2)cc1,13.4
COc1ccccc1-c1coc2cc(OCC(=O)OCc3ccccc3)ccc2c1=O,14.6
O=C(CCn1cnnn1)Nc1cccc(F)c1,13.6
NCCNc1ccc([N+](=O)[O-])cc1,12.9
COc1cccc(NC(=O)COC(=O)c2ccccc2F)c1,20.6
O=C1C2CCCCC2C(=O)N1c1ccc(NC2CCCCC2)c([N+](=O)[O-])c1 (centres undefined),15.8
Cc1ccc(Cl)cc1NC(=O)CC1NC2CCCCC2NC1=O (centres undefined),25.7
CCOC(=O)C1(Cc2cccc(OC)c2)CCN(Cc2cccn2-c2ccccn2)CC1,6.7
O=C(COC(=O)/C=C/c1ccco1)Nc1ncc(C(F)(F)F)cc1Cl,27.4
CN(C)S(=O)(=O)c1cccc(NC(=S)NC2CCCCC2)c1,12.2
CCC1=NN(C(=O)Cc2ccc(OC)c(OC)c2)C(O)(C(F)(F)F)C1 (centres undefined),1.9
Cc1nnc(NC(=O)C2c3ccccc3Oc3ccccc32)s1,3.5
Cc1ccc2cn[nH]c2c1NC(N)=S,-8.0
CN1CCN(c2ccc(NS(=O)(=O)c3ccc(Cl)cc3)cn2)CC1,19.6
O=C(Nc1ccc(C(F)(F)F)cn1)Nc1cccs1,13.8
CCCCOc1ccc(C(=O)N/N=C/c2cn[nH]c2-c2ccc(OC)c(OC)c2)cc1,3.0
COc1ccc2cc(C(=O)Nc3c(C)n(C)n(-c4ccccc4)c3=O)sc(=O)c2c1OC,16.9
COc1ccc(N(CC(=O)NCc2cccnc2)S(=O)(=O)c2ccc(C)c([N+](=O)[O-])c2)cc1,-0.9
Cc1ccc(S(=O)(=O)/N=C(\CCl)N2CCOCC2)cc1,16.2
COC(=O)c1cccc(-n2c(C)cc(C=O)c2C)c1,9.7
COc1ccc(N2CCC(CNC(=O)Nc3ccc(Cl)cc3)C2)cc1 (centres undefined),12.3

# Other records
SMILES,Calb biofilm kill
O=C(COC(=O)CNC(=O)c1ccccc1F)Nc1ccc2c(c1)OCCO2,7.7
CC(O)CNC(=O)Cc1cc(=O)[nH]c(=O)[nH]1 (centres undefined),21.8
CCC1(C(=O)OC)CCc2c(cc(OC)c3ccccc23)C1=O (centres undefined),-2.2
COCCN1C(=O)c2[nH]nc(-c3ccccc3O)c2C1c1ccc(OC)cc1 (centres undefined),24.4
C=C(C)C(=O)Nc1cccc(C2=NOC3(C2)C[C@@H](C(N)=O)N(C(=O)/C=C/C=C/C)C3)c1 (some centres undefined),16.0
CN(C)/C=C/c1[nH]c(=O)[nH]c(=O)c1[N+](=O)[O-],19.0
CCc1nc2ccccc2n1CC(C)C(=O)O (centres undefined),6.8
COc1ccccc1CNC(=O)c1cccc(S(=O)(=O)N2CCN(C)CC2)c1,6.3
COc1ccc(OCC(=O)N/N=C/c2ccsc2)cc1,5.9
COc1cccc(C2c3c(oc4ccccc4c3=O)C(=O)N2CCCN2CCOCC2)c1 (centres undefined),6.8
O=C(Nc1ccccc1Cc1ccccc1)c1oc2ccccc2c1COc1ccccc1,9.7
Cc1c(C(=O)Nc2ccc(-c3nnc4n3CCCCC4)cc2)oc2c1ccc1ccccc12,19.6
Cc1nnc(Cl)c2nn(-c3ccccc3F)c(C)c12,14.9
COc1ccccc1Cn1c(CO)nc2ccccc21,0.7
NC1=NC[C@H](Cc2ccc(O)cc2)N1CCc1cccc(F)c1,17.6
CCS(=O)(=O)NCC(c1ccco1)N1CCN(c2ccc(F)cc2)CC1 (centres undefined),-0.9
CN(C)C=Nc1ccccc1C1C=NNC1=O (centres undefined),15.2
CCn1c(-c2cccnc2Cl)nc2cc(C)c(C)cc21,7.5
Cc1ccc(S(=O)(=O)N2CCOC2CNC(=O)C(=O)NCCc2ccc(S(N)(=O)=O)cc2)cc1 (centres undefined),11.0
Cc1cc(CNC(=O)COc2ccc(C#N)cc2)c2ccccc2n1,12.6
CN(C)c1nc(N)nc(Cn2nnc(-c3ccc(C(F)(F)F)cc3)n2)n1,11.9
Oc1ccccc1C=NC(c1ccccc1)C(O)c1ccccc1 (centres undefined),7.3
O=C(NCc1ccccc1)C(=O)NCC1OCCN1S(=O)(=O)c1ccc([N+](=O)[O-])cc1 (centres undefined),6.5
Cc1ccc(NC(=S)N(Cc2cccs2)Cc2cc3cc(C)ccc3[nH]c2=O)cc1,15.4
CN1CCN(C(=O)/C(=C\c2ccc3c(c2)OCO3)NC(=O)c2cccs2)CC1,11.6

# (more compounds)
SMILES,Calb biofilm kill
CCCNC(=O)c1ccc(CN2CCc3ccccc3C2)cc1,13.8
COc1ccc(N2CC(C(=O)OC(C)C(=O)c3ccccc3)CC2=O)cc1 (centres undefined),-1.3
CC(C)C(=O)NC(C)C(c1cccs1)N1CCN(c2ccccc2)CC1 (centres undefined),6.7
Nc1nc(-c2cccc(F)c2)cs1,25.9
CC(C)(C)C(=O)Nc1cc(NC(=O)C(C)(C)C)cc(C(=O)Nc2cc(C(=O)O)cc(C(=O)O)c2)c1,5.6
CCOC(=O)c1ccc(NC(=S)N(CCN2CCCCCC2)Cc2ccco2)cc1,17.3
Cc1cccn2c(=O)c(/C=C(\C#N)C(=O)NC3CCS(=O)(=O)C3)c(N3CC(C)OC(C)C3)nc12 (centres undefined),8.7
O=c1[nH]c2ccccc2cc1-c1nnn(-c2ccc(F)cc2)n1,13.1
Cc1ccc(S(=O)(=O)N2CCC(C(=O)NCCc3ccccn3)CC2)cc1,8.8
COc1ccc(C2=NNC(c3cccs3)=Nc3ccc(OC)cc32)cc1,19.6
CCCC(=O)Nc1ccc2c(c1)nc(CCNC(=O)c1ccco1)n2C,12.9
Cc1c(-c2ccccc2)[n+](=O)c2c(n1[O-])CCCC2,18.8
Fc1ccc(NC(=S)Nc2cccc(Cl)c2)cc1,14.5
COCc1[nH]nc2c1C(c1ccccc1OC)C(C#N)=C(N)O2 (centres undefined),5.6
N#CC(C#N)=NNc1ccc(S(=O)(=O)N2CCCCC2)cc1,19.1
COC(=O)c1sc2nc(SCc3cccc(F)c3)n(N)c(=O)c2c1C,17.1
Cc1ccc(-c2nc(-c3cccnc3)sc2CC(=O)O)cc1,5.2
Brc1ccc2nc(-c3ccncc3)c(NC3CCCC3)n2c1,6.2
Cc1[nH]c2ccccc2c1-c1nc(-c2ccc(Cl)cc2)nnc1-c1ccccc1,13.8
O=C(c1cccc2c1-c1ccccc1/C2=N/O)N1CCCCC1,7.3
C/C(CC(=O)Nc1cc(C)ccn1)=N\NC(=O)c1ccccc1C,2.2
Cc1ccc(CC(=O)Nc2ncc([N+](=O)[O-])s2)cc1,9.4
CCC(C)c1ccc(S(=O)(=O)N2CCN(C(C)CC(=O)O)CC2)cc1 (centres undefined),9.6
CC1CN(C(=O)COC(=O)c2ccc(N(C)C)cc2)CC(C)O1 (centres undefined),4.1
Cc1nc2nc[nH]n2c(=O)c1NS(=O)(=O)c1ccc([N+](=O)[O-])cc1,12.9

# The list continues.
SMILES,Calb biofilm kill
O=C(Nc1ccccc1N1CCOCC1)c1ccc(S(=O)(=O)NCc2ccco2)cc1,8.0
CCOC(=O)c1c(CN(C)C)n(-c2ccc(C)cc2)c2cc(Br)c(O)cc12,12.3
CNC(=O)c1cccnc1Nc1cccc(C(F)(F)F)c1,5.5
Cc1nc2ccccc2nc(C)c1=NOCc1ccc(C#N)cc1,5.4
COc1ccc(N(CC(=O)NC2CCCCC2)C(=O)CNC(=O)c2ccco2)c(OC)c1,8.3
CC12CCC(C(=O)NCCc3ccccc3)(OC1=O)C2(C)C (centres undefined),10.0
CCCC1/C(=N/O)CC(c2ccccc2)NC1c1ccccc1 (centres undefined),26.0
Cc1cc(NCCc2ccc(Cl)cc2)n2ncnc2n1,-20.2
CC(C)N1C(=S)SC(C)(C)C1n1oc(=O)n(-c2ccc(Cl)c(Cl)c2)c1=O (centres undefined),14.2
COc1ccccc1/C=N/NC(=O)c1[nH]c(C)c(C(=O)N/N=C/c2ccccc2OC)c1C,5.8
O=C(CN1c2ccccc2Sc2ccccc21)NNC(=O)Nc1ccc(Cl)cc1,24.5
Cc1ccc(S(=O)(=O)Cn2nnnc2C(C(C)C)N2CCN(c3nc4ccccc4s3)CC2)cc1 (centres undefined),4.8
O/N=C1\CCCc2ccccc21,3.4
O=C(CC(c1ccccc1)c1cc(Br)ccc1O)N1CCCCC1 (centres undefined),22.7
CCOC(=O)C1(C)C=C(Nc2ccc(NC(C)=O)cc2)C(=O)N1c1ccc(NC(C)=O)cc1 (centres undefined),6.6
O=C(CN1C(=O)C2C3CC(C(Br)C3Br)C2C1=O)N1CCN(Cc2ccccc2)CC1 (centres undefined),16.5
NC(=O)CCN1CCN(CCOC2Cc3cc(Cl)ccc3Sc3ccccc32)CC1 (centres undefined),18.2
COc1ccc(Cn2c(=O)[nH]c3cc(C(=O)Nc4ccc(N5CCN(C)CC5)cc4)ccc32)cc1,22.3
COC(=O)c1sccc1NC(=S)OC,23.0
COc1ccc(-n2c(C)c(C(C)=O)c3cc(OCC(N)=O)ccc32)cc1,22.7
COc1ccc(CCNC(=O)CSc2nn(-c3ccccc3)c(=S)s2)cc1OC,8.0
CCNC(=O)C1CCCN1S(=O)(=O)c1ccc(C)cc1 (centres undefined),-7.8
C(=N\Nc1ccccc1)/c1nc2ccccc2s1,-1.7
Cc1ccc(CCN2C(=O)c3ccccc3C2C(=O)NCc2cccnc2)cc1 (centres undefined),16.2
CCc1cc2cc(C(=O)Nc3ccc(C)cc3)sc2s1,12.2

# Part of the list above in another layout:
Structure | Calb biofilm kill
O=C(CN1c2ccccc2Sc2ccccc21)NNC(=O)Nc1ccc(Cl)cc1 | 24.5
O=C(Nc1ccccc1N1CCOCC1)c1ccc(S(=O)(=O)NCc2ccco2)cc1 | 8.0
COC(=O)c1sccc1NC(=S)OC | 23.0
COc1ccccc1/C=N/NC(=O)c1[nH]c(C)c(C(=O)N/N=C/c2ccccc2OC)c1C | 5.8
O=C(CN1C(=O)C2C3CC(C(Br)C3Br)C2C1=O)N1CCN(Cc2ccccc2)CC1 (centres undefined) | 16.5
CCNC(=O)C1CCCN1S(=O)(=O)c1ccc(C)cc1 (centres undefined) | -7.8
Cc1ccc(CCN2C(=O)c3ccccc3C2C(=O)NCc2cccnc2)cc1 (centres undefined) | 16.2

# An excerpt of these results, with tabs.
SMILES	Calb biofilm kill
O/N=C1\CCCc2ccccc21	3.4
O=C(CC(c1ccccc1)c1cc(Br)ccc1O)N1CCCCC1 (centres undefined)	22.7
CCOC(=O)C1(C)C=C(Nc2ccc(NC(C)=O)cc2)C(=O)N1c1ccc(NC(C)=O)cc1 (centres undefined)	6.6
O=C(CN1C(=O)C2C3CC(C(Br)C3Br)C2C1=O)N1CCN(Cc2ccccc2)CC1 (centres undefined)	16.5

# New compounds follow:
SMILES,Calb biofilm kill
Cc1ccsc1/C=N/NC(=O)CNC(=O)c1ccco1,16.9
COc1ccccc1Cn1c(C)nc2ccccc21,21.2
CS(=O)(=O)c1ccc2nc(NC(=O)c3ccc(=O)[nH]c3)sc2c1,21.2
CN1CCCN(Cc2nc(-c3cccc(C(F)(F)F)c3)no2)CC1,16.0
CC(C)(C)c1ccc(OCC(=O)N(c2ccccn2)C2CCCCC2)cc1,-1.2
Cc1sc(NC(=O)/C=C/c2ccc3c(c2)OCO3)nc1-c1ccccc1,18.1
CCOC(=O)c1c(NC(=O)CCC(=O)O)sc2c1CCCCC2,9.3
CN(c1ccc(C(=O)Nc2ccc3c(c2)OCO3)cc1)S(C)(=O)=O,19.7
CC(=O)NC(=S)Nc1cc(C(F)(F)F)ccc1N1CCOCC1,7.1
COc1cccc(/C=C/C(=O)c2ccc(NS(=O)(=O)c3ccc(C)cc3)cc2)c1,15.2
O=C(CNC(=O)c1ccncc1)N/N=C/c1ccc(Br)cc1,18.2
CC(C)(C)OC(=O)N/N=C/c1ccc(Br)cc1,8.4
Cc1ccc(S(=O)(=O)N[C@H](C(=O)OCC(=O)NC(=O)Nc2ccc3c(c2)OCCO3)C(C)C)cc1,5.7
CC(=O)c1sc(NC(=O)COc2ccc(C)c(C)c2)nc1C,13.1
O=C(CSc1nnc(-c2cccnc2)n1-c1ccc(SC(F)F)cc1)N1CCCc2ccccc21,10.2
Cn1cc(/C=C/C(=O)N2CCCC(C(=O)c3ccc(C(C)(C)C)cc3)C2)cn1 (centres undefined),23.6
COc1ccc(C(=O)OC2CCN(C)CC2)cc1,16.0
CCOc1ccc(C(=O)N/N=C/c2ccc(SC)cc2)cc1,5.4
COCCCn1cnnc1SCc1nc2sc(C(C)=O)c(C)c2c(=O)[nH]1,19.9
O=C(O)c1nnn(-c2cccc(C(F)(F)F)c2)c1-c1ccccc1,11.4
CCN(C(=O)c1cnc(OC)cc1C(F)(F)F)c1ccc(Cl)cc1Cl,12.2
O=C(CN1CCN(Cc2ccccc2Cl)CC1)N/N=C/C=C/c1ccccc1[N+](=O)[O-],9.3
C#CCN(C)Cc1ccccc1,6.3
O=C(O)C(Cc1ccccc1)N1C(=O)CCC1=O (centres undefined),21.3
C=CCNc1nc(N)c([N+](=O)[O-])c(NCCO)n1,14.8

# More structures
SMILES,Calb biofilm kill
C/C(=N/NC(=O)c1cnccn1)c1cccs1,7.8
COc1ccc(NC(=O)CCCn2c(=O)c3sccc3n(Cc3ccccc3C)c2=O)cc1,11.1
CC1CC(C)(C)NC(=S)N1CCC(=O)NCc1ccc(Cl)cc1 (centres undefined),10.3
COc1cc(Nc2ncnc(N)n2)cc(OC)c1,13.8
O=C(NCc1n[nH]c(=S)n1Cc1ccccc1)c1ccc(Cl)cc1Cl,0.7
O=[N+]([O-])C(=C1SCCS1)C(=C(Cl)Cl)N1CCCCC1,12.6

# Screening data: PubChem BioAssay, PCMD
